Source: PubChem (ICCB-Longwood Screening Facility, Harvard Medical School)
Choline anaer gr – growth inhibitors of anaerobic choline-fed gram-negatives, minimal medium, absorbance. calls only. actives 0.2% (n = 55,000). AID 1963822, 2024. Gram-negative bacterium anaerobic choline minimal medium; hits give low values; many inactives read as strong as hits in the columns shown;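 active means growth z-score on choline under -2 at 7 or 20 h with little or no fall on glycerol, limits in tiers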;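 further: stock transfer was 300 nL into about 50 µL; the organism is E. coli; final concentration not given here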
Choline anaer gr early – further read-out of Choline anaer gr, marked with its call; z-score; measured here: choline growth z-score, timepoint 1;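 score of optical density at 7 h as mean of two plates; lower means less growth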
* = called active by the depositor; i = inactive; & = joins results of further samples. This is a subset. The share of hits here may be higher or lower than overall.

SMILES	Choline anaer gr	Choline anaer gr early
O=C(Nc1ccc2nc(N3CCOCC3)cc(C(=O)O)c2c1)c1ccc(Br)cc1	i	-1.1
CC(C)c1nnc(-c2coc(S(=O)(=O)N3CCCCC3)c2)o1	i	-1.26
COc1cc(OC)c(NC(=O)N2CCCCCC2c2ccc(C)s2)cc1Cl (stereo unspecified)	i	0.64
COc1ccc2[nH]cc(CCNc3ccc(S(=O)(=O)c4ccc(Cl)cc4)nn3)c2c1	i	0.98
COc1ccc(NC(=O)c2ccc3ncc4c(=O)n(-c5ccc(F)cc5)[nH]c4c3c2)cc1Cl	i	-1.39
CCCCC[C@H](O)/C=C/[C@@H]1[C@H](CCCCCCC(=O)O)[C@@H](O)C[C@H]1O	i	0.47
CC(=O)N1c2nc(C(=O)N3CCOCC3)nn2C2(CCCCC2)[C@@H]2CCCC[C@@H]21	i	0.29
Cc1cc(C)cc(NC(=O)CCc2c(C)nn(-c3ccc4nnc(C)n4n3)c2C)c1	i	0.38
COCCn1c(C2CCN(S(=O)(=O)Cc3ccc(Cl)cc3)C2)nc2cccnc21 (stereo unspecified)	i	0.76
O=C(NCCCO)c1cnc2sc3c(n2c1=O)CCCC3	i	1.09
O=S(=O)(c1ccc2c(c1)CCCC2)N1CC(OCc2ccc(Cl)cc2)C1	i	0.52
CC(C)(C)C(=O)Nc1cc(-c2cccc(Br)c2)nn1-c1ccccc1	i	0.45
C=CCN(Cc1nc(-c2cccc(C)c2)no1)C(=O)Nc1ccccc1C	i	0.43
CN(C)c1nc2ncn3c(=O)n(CC(=O)Nc4ccccc4Cl)nc3c2s1	i	-0.23
CCSc1nnc(-c2nn(C)c3c2CN(S(=O)(=O)c2ccc(C)c(F)c2)CC3)n1CC	i	0.36
CCc1nnc2c3ccccc3nc(Nc3cc(C)c(Cl)cc3OC)n12	i	-0.37
CCCC(=O)N(Cc1nc2nc(C)cc(C)n2n1)c1ccc(F)cc1	i	0.47
CCc1cc(C(N)=S)ccn1	i	0.54
Cc1nnc(C(=O)Nc2cccc(C(=O)NCc3ccccn3)c2)s1	i	-0.03
O=C(CN1C(=O)CSc2cccn2-c2ccccc21)NCCc1c[nH]c2ccccc12	i	-0.16
CNC(=O)c1c(NC(=O)c2cc(=O)c3ccccc3o2)sc2c1CCC2	i	-0.03
O=C(c1c[nH]c2ccc(F)cc2c1=O)N1CCOCC1	i	0.96
CCC(C(=O)Nc1ccccc1)n1nc(-c2ccc(C)c(S(=O)(=O)N3CCCCC3)c2)ccc1=O (stereo unspecified)	i	-0.43
COc1cccc(CNS(=O)(=O)c2cc(-c3cc(C(F)(F)F)on3)sc2C)c1	i	0.14
COc1ccc(OC)c(S(=O)(=O)NC2COc3ccc(Br)cc3C2)c1 (stereo unspecified)	i	-1.16
O=C(NC1CCCc2ccccc21)C1CCN(c2ccc(-c3cccc(F)c3)nn2)CC1 (stereo unspecified)	i	1.99
COc1ccccc1-c1nc(-c2ccc(C)nc2OC)no1	i	1
CNC(=O)CCC(=O)N1c2ccccc2NC2=C(C(=O)CC(C)(C)C2)C1c1cccs1 (stereo unspecified)	i	0.63
Cc1cccc(OCC(=O)Nc2ccc(-c3nc4ccccc4o3)cc2)c1	i	-0.32
Cc1ccc(NC(=O)N2CCN(S(=O)(=O)c3cc4c(cc3Cl)NC(=O)C(C)O4)CC2)cc1F (stereo unspecified)	i	-0.7

Two records drawn at random from the list so far, as already listed:
SMILES	Choline anaer gr	Choline anaer gr early
CN(C)c1nc2ncn3c(=O)n(CC(=O)Nc4ccccc4Cl)nc3c2s1	i	-0.23
O=C(Nc1ccc2nc(N3CCOCC3)cc(C(=O)O)c2c1)c1ccc(Br)cc1	i	-1.1

Other compounds.
SMILES	Choline anaer gr	Choline anaer gr early
CCn1c(=O)c(=O)n(CC(=O)NC2CCCc3ccccc32)c2cccnc21 (stereo unspecified)	i	0.26
CC1CCC(NC(=O)c2sc3ncccc3c2-n2cccc2)CC1 (stereo unspecified)	i	-0.88
O=S(=O)(NCc1ccccc1Cl)c1ccc2[nH]c3c(c2c1)CCCC3	i	-0.1
Cc1cccc(NC(c2ccncc2)c2ccc3cccnc3c2O)c1 (stereo unspecified)	i	-0.21
COc1ccc(-n2c(C)cc(CNC(=O)NC3CCCCC3)c2C)cc1	i	-0.26
COc1ccc(OC)c(CNC(=O)c2cccc(Oc3cc(-c4ccccc4)ncn3)c2)c1	i	0.27
COc1ccc(NC(=O)C2CCN(S(=O)(=O)c3cn(C)cn3)CC2)c(OC)c1	i	-0.53
Cc1cc(NC(=O)CC(C)C)n(-c2ncnc3c2cnn3-c2ccc(F)cc2)n1	i	-1.31
CCOc1ccccc1-c1nc(Cn2nnc(C(=O)Nc3ccc(OC)cc3)c2C)c(C)o1	i	-0.5
O=C(NC1CCCC1)c1ccc2c(=O)n(CC3CCCO3)c(SCC(=O)c3c[nH]c4ccccc34)nc2c1 (stereo unspecified)	i	0.03

3 of the entries above in order of the Choline anaer gr early value, highest first:
SMILES,Choline anaer gr early
Cc1cccc(NC(c2ccncc2)c2ccc3cccnc3c2O)c1 (stereo unspecified),-0.21
CC1CCC(NC(=O)c2sc3ncccc3c2-n2cccc2)CC1 (stereo unspecified),-0.88
Cc1cc(NC(=O)CC(C)C)n(-c2ncnc3c2cnn3-c2ccc(F)cc2)n1,-1.31

(cont.)
SMILES	Choline anaer gr	Choline anaer gr early
COc1cc2c(=O)n(Cc3ccc(C(=O)NC(C)C)cc3)c(=O)n(CC(=O)NC3CCCCC3)c2cc1OC	i	-0.24
COc1ccccc1N1CCN(C(=O)CSc2nccc3c2ccn3Cc2ccc(F)cc2)CC1	i	-0.09
CC(C)Cn1c(=O)c2sccc2n2c(CCCC(=O)NCCc3ccc(S(N)(=O)=O)cc3)nnc12	i	-0.35
O=C(Nc1ccc2c(c1)OCCO2)C1CC(=O)N(CCc2c[nH]c3ccc(F)cc23)C1 (stereo unspecified)	i	-1.38
CCOC(=O)c1cc2n(n1)CC(C)(C(=O)NC1CCCCC1)N(c1ccc(F)cc1F)C2=O (stereo unspecified)	i	-0.5
Cc1ccc(NC(=O)C2CCCN2S(=O)(=O)c2cccc3cccnc23)cc1 (stereo unspecified)	i	0.93
CCCCSc1nc2c3cc(OC)ccc3n(C)c2c(=O)n1CCO	i	0.35
COc1ccc(-c2csc(Cc3nc(-c4cccc(Cl)c4)no3)n2)cc1OC	i	1.26
Cc1nc2c(c(C)nn2-c2ccccc2)c(C)c1CCC(=O)NCCN1CCC(Cc2ccccc2)CC1	i	1.54
CCC(=C(c1ccccc1)c1ccc(OCCN(C)C)cc1)c1ccccc1	i	-3.63
Cc1cccc(NC(=O)N2CCN(c3cc(=O)n4nc(-c5ccccc5C)sc4n3)CC2)c1	i	0.28
CN(C)CCn1c(=O)c2c(ncn2CC(O)CO)n(C)c1=O (stereo unspecified)	i	0.35
CCCN(CCC)S(=O)(=O)c1ccc2c(c1)n(C)c(=O)c(=O)n2C	i	-0.76
O=C(NC1CCCCC1)c1ccc(-c2cc(N3CCOCC3)ncn2)cc1	i	0.54
Cc1ccc(NC(=O)c2ccc3c(c2)NC(=O)CO3)cc1C	i	2.7
CCCNC(=O)c1ccc(Oc2ccc(NS(=O)(=O)c3ccc(Br)cc3)cc2)nc1	i	1.16
CCN(c1ccccc1)S(=O)(=O)c1ccc2[nH]cc(C(=O)NCCOC)c(=O)c2c1	i	-1.11
COC(=O)c1cc(Nc2cccc(C)c2)c2ccccc2n1	i	-2.54
O=S(=O)(c1cccn2c(SCc3cccc(F)c3)nnc12)N1CCCC1	i	-0.47
CC(C)c1ccc(OCC(=O)Nc2nonc2-c2ccc(Br)cc2)cc1	i	1.41

Taken from above.
Choline anaer gr early result of COCCn1c(C2CCN(S(=O)(=O)Cc3ccc(Cl)cc3)C2)nc2cccnc21 (stereo unspecified) reads 0.76
Choline anaer gr early result of CC(C)c1ccc(OCC(=O)Nc2nonc2-c2ccc(Br)cc2)cc1 reads 1.41
Choline anaer gr early result of CCOc1ccccc1-c1nc(Cn2nnc(C(=O)Nc3ccc(OC)cc3)c2C)c(C)o1 reads -0.5
Choline anaer gr early result of COC(=O)c1cc(Nc2cccc(C)c2)c2ccccc2n1 reads -2.54

Rewritten bar-delimited: entries from further up
molecule | Choline anaer gr | Choline anaer gr early
Cc1nnc(C(=O)Nc2cccc(C(=O)NCc3ccccn3)c2)s1 | i | -0.03
O=C(CN1C(=O)CSc2cccn2-c2ccccc21)NCCc1c[nH]c2ccccc12 | i | -0.16
CNC(=O)c1c(NC(=O)c2cc(=O)c3ccccc3o2)sc2c1CCC2 | i | -0.03
O=C(c1c[nH]c2ccc(F)cc2c1=O)N1CCOCC1 | i | 0.96
CCC(C(=O)Nc1ccccc1)n1nc(-c2ccc(C)c(S(=O)(=O)N3CCCCC3)c2)ccc1=O (stereo unspecified) | i | -0.43

Going on with the list.
SMILES	Choline anaer gr	Choline anaer gr early
Cc1ccc(S(=O)(=O)N2CCCC(c3nc(-c4ccc(Br)cc4)no3)C2)cc1 (stereo unspecified)	i	1.74
CC1=C(c2ccc(Cl)cc2)S(=O)(=O)N=C1N1CCC(NC(=O)NC(C)C)CC1	i	0.48
COC(=O)C1=C(C)NC(C)=C(C(=O)NCCCN2CCC(c3ccccc3)(c3ccccc3)CC2)C1c1ccc([N+](=O)[O-])cc1 (stereo unspecified)	i	0.32
CN(CCc1noc(-c2ccc(C(=O)NCc3ccccc3Cl)cc2)n1)C(=O)Nc1ccccc1	i	1.71
CC(=O)N1CCCSc2ccc(S(=O)(=O)NCCC3=CCCCC3)cc21	i	-1.13
O=C(CCc1nc(-c2ccc(S(=O)(=O)N3CCCC3)cc2)no1)N1CCN(c2ccccc2)CC1	i	0.95
CCC(C)(C)NC(=O)C1CCCN(S(=O)(=O)c2cc3c(cc2C)NC(=O)C(C)O3)C1 (stereo unspecified)	i	-0.44
COc1ccc2c(c1)c1ncn(Cc3nc(C4CC4)no3)c(=O)c1n2Cc1c(F)cccc1Cl	i	1.4
O=C(CSCc1nnc(C(=O)Nc2ccccc2)s1)NC1CCN(Cc2ccccc2)CC1	i	-0.35
CC1CCN(C(=O)Cn2cnc3c(oc4ccccc43)c2=O)CC1	i	0.23
O=C1C(Oc2ccccc2)C(c2ccc3c(c2)OCO3)N1c1cccc(Cl)c1 (stereo unspecified)	i	1.1
C=CCn1c(=O)c(=O)n(CCC(=O)NCCc2c[nH]c3ccc(Cl)cc23)c2ccccc21	i	-0.21
Nc1nc(F)nc2c1ncn2[C@@H]1O[C@H](CO)[C@@H](O)[C@@H]1O	i	-3.2&-2.02
COc1ccc(Cc2cnc(N)nc2N)cc1OC	i	-2.74
CC(=O)NCCCCCCNC(C)=O	i	0.61
Cn1cnc(S(=O)(=O)NC2CCN(c3ncnc4c3CCC4)C2)c1 (stereo unspecified)	i	0.6
Cn1c(CCc2cccc(NC(=O)C3CCN(S(=O)(=O)N4CCCC4)CC3)c2)nc2ccccc21	i	-1.27
COC(=O)c1cc(S(=O)(=O)N2CCC(Cc3ccccc3)CC2)cn1C	i	0.31
Cc1ccc2nc(-c3ccc(NS(=O)(=O)c4cccc(F)c4)cc3)ccc2c1	i	-0.2
CCN(CCO)CCCC(C)Nc1ccnc2cc(Cl)ccc12 (stereo unspecified)	i	0.34
Cc1sc(-c2cc(C(F)(F)F)on2)cc1S(=O)(=O)Nc1cccc(Cl)c1C	i	0
O=C(O)C(Cc1ccccc1)NS(=O)(=O)c1ccc2[nH]c(=O)c(=O)[nH]c2c1 (stereo unspecified)	i	-0.38
c1ccc2oc(-c3cn[nH]c3)nc2c1	i	-2.68
CSc1n[nH]c(=O)c2cc(-c3cccs3)nn12	i	-2.25
Cc1cccc(Cn2c(C)nc3onc(C)c3c2=O)c1	i	-0.15
CC(C)c1ccc(S(=O)(=O)N2CCC3(CC2)NCCN=C3NCc2ccccc2)cc1	i	-1.06
CCOc1ccc(N(C)C(=O)C2CCC(=O)N2S(=O)(=O)c2ccccc2)cc1 (stereo unspecified)	i	-0.1
O=C(C1CCCN(c2ccnc(-c3cccc(F)c3)n2)C1)N1CCN(Cc2ccccc2)CC1 (stereo unspecified)	i	-0.06
COC(=O)c1cc(=O)nc2sccn12	i	0.02
CCCCOc1ccc(C(=O)NCc2csc(-c3ccccc3)n2)cc1	i	0.29
CC(C)C(=O)Nc1cc2c(cc1N1CCCCC1)n(C)c(=O)c(=O)n2C	i	-0.61
Cc1cc(C)cc(Nc2cc(-n3nc(C)cc3C)ncn2)c1	i	-0.32
Cc1ccc(N(C)S(=O)(=O)c2cc(-c3nc(C)c(C)s3)sc2C)cc1	i	0.24
O=C(Nc1ccc(Br)cc1F)N1CCN(c2ccc(=O)n(-c3ccc(F)cc3)n2)CC1	i	0.45
COC(=O)c1c(NC(=O)CSc2nc3c(c(=O)[nH]2)CCC3)sc2c1CCC(C)C2 (stereo unspecified)	i	-1.2
CN(C)C(=O)c1ccc2c(c1)N(CC(=O)NCc1ccc3c(c1)OCO3)C(=O)CO2	i	-0.31
O=C(C1CCN(c2ncnc3c2oc2ccccc23)CC1)N1CCC(Cc2ccccc2)CC1	i	0.03
O=C(O)c1nn(-c2ccc(Cl)cc2)ccc1=O	i	0.25
COc1cccc(Nc2ncc3c(n2)CCN(Cc2cccc(OC)c2OC)C3)c1	i	-2.13
Cc1nc2n(n1)C(C(=O)Nc1ccc(Cl)cc1)CC(=O)N2 (stereo unspecified)	i	-0.03
COc1ccc(OC(=O)CSc2nc(-c3ccccc3)nc3cc(=O)[nH]n23)cc1	i	-0.63
O=C(NCc1ccc(F)cc1Cl)C1CCN(c2ncnc3c2oc2ccccc23)CC1	i	-0.68
CCCCc1nnc2sc(COc3ccccc3Cl)nn12	i	-0.25
Cc1c(S(=O)(=O)N2CCC(c3c(C)n(Cc4ccc(F)cc4)c4ccccc34)CC2)cnn1C(F)F	i	0.35
O=C(COc1ccc(F)cc1)Nc1ccccc1-c1ccc2ccccc2n1	i	1.71
CCOc1c(C(=O)OC)sc2ccc(NC(=O)c3cc(OC)cc(OC)c3)cc12	i	0.42
COc1cccc(NC(=O)c2ccc(NC(=O)N3CCCCc4ccccc43)cc2)c1	i	-0.05
c1ccc(-c2nc3nc4c(c(Nc5ccc6c(c5)OCO6)n3n2)CCCC4)cc1	i	-0.62
